NPR1 antag: human Npr1 receptor antagonism; Potency, µM (top dose mostly 46.3 µM), inactives show at the top dose activity change, negative = inhibition, actives largely listed as inhibitors; P16066; AID 1347048; 76,000 compounds, 1.6% hits; HEK293 hNpr1 GloSensor cGMP, ANP-stimulated luminescence; active = well fitted inhibition curve with a large enough effect; inconclusive = small, poorly fitted or top-dose-only effect; inactive = no such curve, though single readings can be large or run the other way;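 further: nearly all actives have a fitted effect of over 60% in size; nearly all hits also lower the signal before the agonist is added; a reference antagonist and vehicle were the controls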
Target sequence (P16066 whole entry, looked up): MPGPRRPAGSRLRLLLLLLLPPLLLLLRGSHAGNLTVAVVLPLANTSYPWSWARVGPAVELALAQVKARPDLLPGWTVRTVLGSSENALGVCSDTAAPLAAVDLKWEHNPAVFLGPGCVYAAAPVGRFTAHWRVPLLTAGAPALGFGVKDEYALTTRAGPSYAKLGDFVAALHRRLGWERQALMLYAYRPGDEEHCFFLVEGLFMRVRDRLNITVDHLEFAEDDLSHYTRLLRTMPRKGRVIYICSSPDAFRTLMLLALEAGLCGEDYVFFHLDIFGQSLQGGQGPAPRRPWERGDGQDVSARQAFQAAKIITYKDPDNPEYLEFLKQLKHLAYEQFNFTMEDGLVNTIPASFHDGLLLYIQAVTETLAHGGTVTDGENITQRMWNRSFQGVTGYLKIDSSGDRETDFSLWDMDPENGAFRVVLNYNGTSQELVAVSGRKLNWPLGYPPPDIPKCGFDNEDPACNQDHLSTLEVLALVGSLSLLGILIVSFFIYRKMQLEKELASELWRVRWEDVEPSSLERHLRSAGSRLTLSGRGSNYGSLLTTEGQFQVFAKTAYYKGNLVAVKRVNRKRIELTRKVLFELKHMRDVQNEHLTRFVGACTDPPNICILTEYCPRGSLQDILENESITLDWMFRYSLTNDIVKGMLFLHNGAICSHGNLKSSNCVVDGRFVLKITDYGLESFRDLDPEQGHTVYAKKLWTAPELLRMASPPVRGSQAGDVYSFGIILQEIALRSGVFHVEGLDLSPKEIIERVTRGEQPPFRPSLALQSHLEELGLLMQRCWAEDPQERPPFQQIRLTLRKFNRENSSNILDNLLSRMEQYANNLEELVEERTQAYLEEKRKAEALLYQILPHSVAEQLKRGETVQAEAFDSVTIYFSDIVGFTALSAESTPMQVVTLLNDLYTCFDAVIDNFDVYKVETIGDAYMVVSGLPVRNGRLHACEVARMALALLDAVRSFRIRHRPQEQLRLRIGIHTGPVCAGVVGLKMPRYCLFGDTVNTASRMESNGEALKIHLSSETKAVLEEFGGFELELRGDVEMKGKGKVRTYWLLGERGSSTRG
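Compound pre-incubated 30 min at room temperature on GloSensor-loaded HEK293 cells stably carrying hNpr1 and the pGS-40F cGMP biosensor. Stimulation uses hNppA at 0.1 nM final; luminescence is taken at baseline and 20 min post-agonist.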
* = called active by the depositor; ? = inconclusive; [ ] = another dose, or the depositor's remark. On the % scale 0 is the no-effect control and ±100 the full control effect; potency means the concentration at half of the fitted maximal effect. These rows are one share of the data; count on the stated rates, not on these rows.

NPR1 antag	Structure
7%[70.6 µM]	Cc1noc(C)c1S(=O)(=O)NCC1(COc2cnccn2)C[C@@H](O)[C@@H](O)C1 (stereo partly specified)
-2%	Cc1ccc(C(=O)N2CCc3nnc([C@@H]4C[C@@H](O)CN4C(C)C)n3CC2)cn1
13%	COC(=O)[C@@H]1C[C@H](NC(=O)CSC23CC4CC(CC(C4)C2)C3)CN1C
?	Cc1ccc(-c2ncc(C(=O)Nc3cc(F)cc(F)c3)c(-c3ccncc3)n2)cc1
3%	COc1ccccc1CCC(=O)N1C[C@H](N)C[C@H]1C(=O)NC(C)C
-12%	O=C(NCc1ccccc1F)[C@H]1CN(Cc2ccccc2)C[C@H]1C(=O)O
-1%	CCn1nccc1C(=O)N1CCC(N2C[C@H](O)C[C@H]2C(=O)NCc2cccc(OC)c2)CC1
0%	O=S(=O)(N[C@@H]1CCOC[C@H]1O)c1cccc(C(F)(F)F)c1
-16%	COCCN1C(=O)CS(=O)(=O)C12CCN(C(=O)c1cc(Cl)ccc1OC)CC2
-2%	O=C(CCC[C@@H]1[C@H]2CCCN3CCC[C@@H](CN1Cc1ccccc1)[C@@H]23)N1CCCC1
-27%	CCn1nccc1C(=O)N1CCCC(c2noc(COc3ccccc3)n2)C1 (stereo unspecified)
?	CC1=C[C@@H](CNCc2cccnc2)[C@H](C(C)C)C[C@H]1Cc1nnc(-c2ccc([N+](=O)[O-])cc2)o1
13%	CN(Cc1ccc2c(c1)CCO2)C1CCc2nn(CC3CC3)c(=O)n2CC1 (stereo unspecified)
-5%	CN1C(=O)CC(C(=O)O)C12CCN(C/C=C/c1ccccc1)CC2 (stereo unspecified)
2%	CCCOCCNC(=O)c1c(C)noc1-c1ccc(C(C)(C)C)cc1
-1%	CCOc1ccc2c(n1)CCN(C(=O)C1(c3ccc(OC)cc3)CC1)C2
-6%	O=C(c1ccc(N2CC3CC(C2)[C@H]2CCCC(=O)N2C3)nc1)N1CCN(c2ccccn2)CC1 (stereo partly specified)
-6%	COC(C)c1nc(C2CCOCC2)nn1Cc1ccc2c(c1)OCO2 (stereo unspecified)
1%	Cc1nc(CC(=O)Nc2nn(C)c3cccc(Oc4cccnc4)c23)cs1
8%	CC(C)c1nnc(C2CN(C(=O)C3CCCC3)CC23CCOCC3)o1 (stereo unspecified)

3 of the compounds above, with each value named:
COC(=O)[C@@H]1C[C@H](NC(=O)CSC23CC4CC(CC(C4)C2)C3)CN1C
  NPR1 antag: 13%
Cc1ccc(-c2ncc(C(=O)Nc3cc(F)cc(F)c3)c(-c3ccncc3)n2)cc1
  NPR1 antag: ?
COc1ccccc1CCC(=O)N1C[C@H](N)C[C@H]1C(=O)NC(C)C
  NPR1 antag: 3%

(listing goes on)
NPR1 antag	Structure
2%[70.6 µM]	COC(=O)c1ccc2nc(CO[C@H]3CN(Cc4cccnc4)C[C@H]3F)[nH]c2c1
6%	COc1nccc(N2CC[C@@](O)(C3CCOCC3)[C@H](C)C2)c1C#N
1%[70.6 µM]	CCNC(=O)N[C@H]1[C@H](O)[C@@H](N2CCCCC2)[C@@H]2OC[C@H]1O2
-3%[70.6 µM]	O=C(NCCOc1ccccc1)c1nc2c(o1)CCN(CC1CCCCC1)CC2
-3%[70.6 µM]	C[C@H]1[C@@H]2[C@@H](O)C([C@H](C)C(=O)NCc3ccccn3)CC[C@@]2(C)CC[C@@H]1NC(=O)C1CC1 (stereo partly specified)
5%[70.6 µM]	COC[C@H]1C[C@@H](NC2CCN(C(C)=O)CC2)[C@H](O)[C@@H]1O
-6%	Cc1cc(C(F)(F)F)nn1CC(=O)N1CCCCCCNC(=O)CC1
-21%	COC(=O)[C@@H]1Cc2c([nH]c3ccccc23)[C@H]2C[C@H](NCCc3cnc[nH]3)C[C@@H](c3ccccc3F)N21
2%	O=C(CCc1conc1-c1ccccc1F)NCC1CCCCC1
1%	CN(Cc1cccnc1)C1CN(C(=O)c2ccnn2C)C1
3%[70.6 µM]	NC(=O)CNC(=O)C1=C[C@@H](NC(=O)c2ccc(F)c(Cl)c2)[C@@H](O)[C@H](O)C1
0%	COCC(=O)N1CCN(C2CCN(Cc3ccccn3)C2=O)CC1 (stereo unspecified)
-1%	O=C(NCc1cc(F)cc(F)c1)C1CCN(C(=O)c2ncn3c2COC(c2ccc(F)cc2)C3)CC1 (stereo unspecified)
-11%	COc1cccc(CC(=O)N2CCC(N3C(=O)CCC3C(=O)NCc3ccccc3)CC2)c1 (stereo unspecified)
-2%[70.6 µM]	COc1ccc(C(=O)N2CCOCC3(CN(Cc4cccc(Cl)c4)C3)C2)cc1OC
-24%[70.6 µM]	COCCN1CCOc2nc(-c3cccc(OC)c3F)ncc2C1=O
8%[70.6 µM]	Cc1ccccc1C(=O)N(C)C(C)c1cccs1 (stereo unspecified)
35µM*	O=C1COc2ccc(-c3ccoc3)nc2CN1Cc1ccc(C(F)(F)F)cc1
-14%	COc1ccccc1-n1cc(-c2ccnc(N3CCCN(C(C)=O)CC3)n2)cn1
-8%[70.6 µM]	COc1ccc2c(c1)CCN=C2C[C@H]1CN(C(=O)CC(C)(C)C)CC[C@H]1CC(=O)O
-16%[70.6 µM]	O=C1NC2(CCN(Cc3cncs3)C2)Oc2ccccc21 (stereo unspecified)
6%	Cc1nc(N2CCC(NCCc3n[nH]c(=O)[nH]3)CC2)c2ccsc2n1
3%	CCc1nc2nccc(-c3ccc4c(c3)OCCCO4)n2n1
2%	CC(C)c1ccc(CN2CCC(CNS(=O)(=O)C3CC3)C2)cc1 (stereo unspecified)
2%	NC(=O)N1CCCC(C(=O)N2CCCN(c3ccc(F)cc3)CC2)C1 (stereo unspecified)
0%	O=C(c1ccc(CO)o1)N1CCC2(CC1)[C@H](O)C[C@@H]2OCCO
20%	c1ccc(-c2nc(CC3CCCNC3)no2)nc1 (stereo unspecified)
4%[70.6 µM]	COCc1cc(CC2(NC(C)C)COC2)no1
5%	O=C(N[C@@H]1CN(Cc2ccc(F)cc2Cl)C[C@H]1CO)C1CCC1
0%	COCCN1C(=O)CS(=O)(=O)C12CCN(C(=O)Cc1ccccc1C)CC2
-5%	CCNC(=O)c1coc(COc2ccc3c(c2)C(c2cccc(F)c2)N(C(=O)C(C)(C)C)CC3)n1 (stereo unspecified)
0%	Cc1ccccc1OC1(C(=O)O)CCN(c2cncc(C(N)=O)n2)CC1
9%	CN(C)C[C@@H]1CN(C)C[C@H]1NC(=O)NCc1ccc(OC(F)(F)F)cc1
-1%	O=C(Nc1cccc(Br)c1)N1CCC(n2cnnc2C2CC2)C1 (stereo unspecified)
5%	COc1ccc(CNC(=O)[C@@H]2COCC(=O)N2Cc2ccc(OC)cc2OC)cc1
2%[70.6 µM]	COC(=O)c1cn([C@H]2CO[C@H]3[C@@H]2OC[C@H]3OC(=O)Nc2ccccc2)nn1
?	COc1ccccc1-c1[nH]nc2ncc(C(=O)NCC3CC3)nc12
5%[70.6 µM]	Cc1cc2c(-c3ccccc3)nc(-c3c(C)noc3C)cc2[nH]1
7%	CO[C@H]1C(=O)N(C(C)C)[C@H]1C1CCN(C(=O)c2ccsc2)CC1
0%[70.6 µM]	COCC(=O)N1C[C@@H]2C[C@H]1C(=O)N(Cc1ccccn1)c1ccccc1O2

Quoted at random: 3 records from the list.
NPR1 antag	Structure
5%[70.6 µM]	Cc1cc2c(-c3ccccc3)nc(-c3c(C)noc3C)cc2[nH]1
-5%	CCNC(=O)c1coc(COc2ccc3c(c2)C(c2cccc(F)c2)N(C(=O)C(C)(C)C)CC3)n1 (stereo unspecified)
2%[70.6 µM]	COC(=O)c1cn([C@H]2CO[C@H]3[C@@H]2OC[C@H]3OC(=O)Nc2ccccc2)nn1

Next part.
NPR1 antag	Structure
?	Cc1ccc(C2Cn3nnc(C(=O)N4CCN(C(=O)c5cc(Cl)ccc5F)CC4)c3CO2)cc1 (stereo unspecified)
4%	CCN1CCN(CC(O)COc2cccc(CNCc3cnn(CC)c3)c2)CC1 (stereo unspecified)
0%	CCn1nccc1C(=O)N1CCC(Nc2nccnc2OC)CC1
-13%	CCOCCCNC(=O)N1CC(Oc2ccc(-c3nc(C)no3)cc2)C1
0%[70.6 µM]	Cc1noc(C)c1Cn1cc2c3c(cccc31)[C@H](CC(C)C)N[C@H](C(=O)NC1CCC1)C2
0%	COc1ccc(C(=O)N2CCC(Oc3nccnc3N(C)C)C2)c(OC)c1 (stereo unspecified)
-12%	CC1Oc2ccc(NC(=O)CC(C)(C)C)cc2CN(CCc2ccccc2)C1=O (stereo unspecified)
4%	COc1ccc(OC2CCN(C(C)=O)CC2)c(C(=O)NC(C)Cc2cccnc2)c1 (stereo unspecified)
-1%	COc1ccccc1CC(=O)N[C@@H]1CN(C2CCOCC2)C[C@H]1CN(C)C
7.1µM*	Cc1nn2c(c1-c1ccccc1OCc1ccccc1)N(C(=O)COc1ccccc1C(N)=O)CCC2
3%	Cc1noc(C)c1C(=O)N[C@@H]1CN(S(C)(=O)=O)C[C@H]1CN(C)C
7%	COCC(=O)NC[C@H]1CCN(Cc2cn(C)c3ccccc23)C[C@H]1N(C)C
?	COc1ccc(-n2nc(C3CCN(Cc4ccccn4)CC3)[nH]c2=O)cc1
4%	CCN1CC2(CCC1=O)CCN(C(=O)c1ccc(OC)c(Cl)c1)CC2
-18%	CCN(CC1CCCN(CCc2cccc(F)c2)C1)C(=O)CCc1ccccn1 (stereo unspecified)
-8%	CC(C)c1nc2c(c(-c3ccc(O)cc3)n1)CN(Cc1cccc(C(F)(F)F)c1)CC2
3%	CCN(CC)C(=O)CN1CCC(=O)N(Cc2ccc(F)cc2)C(C(C)C)C1 (stereo unspecified)
3%	CCOc1cc(C(=O)NC2CCN(c3cc(-c4ccc(OC)cc4)[nH]n3)C2)cc(OCC)c1OCC (stereo unspecified)
1%	Cc1nn(C)c(C)c1CNC(=O)C1CC(=O)N(c2n[nH]c3cccc(F)c23)C1 (stereo unspecified)
0.28µM*	Cc1c(C(C)NC(=O)c2cc(CC(C)C)nn2C)cnn1-c1ccccc1 (stereo unspecified)
18%	Cc1ccc(-n2c(C3CCN(C(=O)COc4ccc(Cl)cc4C)CC3)n[nH]c2=O)cc1
-1%	Cc1cc(=O)n(CCN2CCOCC2)c(N2CCCC2)n1
0%	CCOc1ccccc1C(=O)N1CCCN(C)c2ccccc21
-14%	O=C(NCC(F)(F)F)c1ccc2c(c1)C1(CCN(CC3CC3)C1)CN2Cc1ccccc1 (stereo unspecified)
-12%	O=[S+]1([O-])NCC2(CCN(Cc3ccc(C(F)(F)F)cc3)C2)Nc2ccccc21 (stereo unspecified)
-13%	O=C1Nc2ccc(-c3ccc(Cl)cc3)cc2C(=O)N2CC[C@H](NS(=O)(=O)c3cccs3)C[C@@H]12
-14%	COc1ccc(C(=O)NCCn2cccc2-c2nc(-c3ccc4c(c3)OCO4)no2)cc1
4%[70.6 µM]	CN1CCN(Cc2nc(C3(O)CCN(CC4CCCCC4)CC3)cs2)CC1
8%[70.6 µM]	COCC(=O)NCC1(COc2cccnc2)C[C@@H](O)[C@@H](O)C1 (stereo partly specified)
0%	COc1ccc(C(=O)N2CCC(c3n[nH]c(=O)n3-c3ccc(C)cc3)CC2)cn1
-1%	COc1ccc(OC)c(CNC(=O)[C@H]2CCC[C@H]2NC(=O)c2ccncc2)c1
5%	COC(=O)c1nc(NC(=O)CC[C@H]2NC(=O)c3ccccc3NC2=O)sc1C
0%	O=C(CC1CCOCC1)N1CCN(c2ncccn2)CC1
4%	CCc1noc([C@@H]2CC(F)(F)CN2C(=O)c2ccc(F)cn2)n1
-4%	O=C(NCCC1CCN(C(=O)Nc2cc(F)cc(F)c2)CC1)c1ccccc1
3%[70.6 µM]	O=C(Nc1ccc(F)cc1F)N1CCOC[C@H](Oc2ccc(C(F)(F)F)cn2)C1
-1%	O=C(NCCOc1ccccc1)[C@@H]1C[C@@H](c2ccc(F)cc2)N([S+](=O)([O-])c2ccccc2)C1
1%[70.6 µM]	O=C(NCC1CCCO1)c1ccnc(-c2nnc3ccc(Nc4ccccc4)nn23)c1 (stereo unspecified)
-23%	CCc1nc2c(NC(=O)c3ccc(F)c(Cl)c3)cccn2n1
-6%	Cc1noc(-c2cccc(OC3CN(S(=O)(=O)c4cn(C)cn4)C3)c2)n1

Another view of two compounds above.
mol | NPR1 antag
O=C(NCCOc1ccccc1)[C@@H]1C[C@@H](c2ccc(F)cc2)N([S+](=O)([O-])c2ccccc2)C1 | -1%
Cc1cc(=O)n(CCN2CCOCC2)c(N2CCCC2)n1 | -1%

New compounds follow
NPR1 antag	Structure
4%	COCCN1C(=O)[C@H]2CN(Cc3ccc(C)cc3C)C[C@H]2C1=O
-6%	COc1cc([C@@H]2c3cc4c(cc3[C@H](O)[C@@H](CO)[C@@H]2C(=O)N2CCCCC2)OCO4)cc(OC)c1OC
-4%	COc1ccccc1N1CCN(C(=O)[C@H]2O[C@H](CCN3CCN(c4ccccc4)CC3)CC[C@@H]2O)CC1
3%	Cc1cc(C(=O)N2CCCCC2c2noc(COc3ccc(F)cc3)n2)n[nH]1 (stereo unspecified)
-5%	COc1ccccc1CCn1cnc(-c2ccccc2)c1-c1cn(C)nc1C
1%[70.6 µM]	NC(=O)[C@H](Cc1cccs1)NC(=O)C1=C[C@@H](NC(=O)c2cccnc2)[C@@H](O)[C@H](O)C1
0%	O=C(CN1CCCC1)N1CC[C@@H](c2ccc3ccccc3c2)[C@H](O)C1

3 compounds already listed, ordered by their value in NPR1 antag, low to high:
NPR1 antag	Structure
-6%	COc1cc([C@@H]2c3cc4c(cc3[C@H](O)[C@@H](CO)[C@@H]2C(=O)N2CCCCC2)OCO4)cc(OC)c1OC
-5%	COc1ccccc1CCn1cnc(-c2ccccc2)c1-c1cn(C)nc1C
3%	Cc1cc(C(=O)N2CCCCC2c2noc(COc3ccc(F)cc3)n2)n[nH]1 (stereo unspecified)
